# Screening data from PubChem BioAssay.
# Sa RN4220 lethal = kills Staphylococcus aureus RN4220; S. aureus RN4220 growth, OD600, 16 h; inhibition, % (concentration not given with the values); hit rate 0.33% among 330,000;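 active = z-score of -3 or lower and OD600 up to 0.18 on both plates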;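 note: plate controls were untreated cells for no effect and reference antibiotic for full effect; stock transfer was 100 nL into about 80 µL; one replicate is shown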
# ugtP null kill = compounds lethal to S. aureus RN4220 ugtP deletion mutant. OD600 growth, 16 h; some inactives read as strong as hits. growth inhibition, % (concentration not given with the values). hit rate 0.54% among 330,000. AID 1259309;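 active = z-score under -3 and OD600 up to 0.15 on both plates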;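 note: plate controls were untreated wells for no effect and antibiotic for full effect; wells of about 80 µL received 100 nL stock; the first replicate is given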
# PrP 5UTR inh = inhibition of PrP 5' UTR reporter expression; cell-based PrP 5' UTR mRNA reporter, plate reader; inhibition, % (no concentration beside the values); hit rate 0.35% among 340,000;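 active = every replicate at 50% or more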;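 note: 0 = median of the neutral control wells; tested in H4 reporter cells; numbers are from one replicate; inactives centre near -14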
# BJeLR viability = BJeLR cell viability loss; BJeLR (HRASV12) viability, CellTiter-Glo ATP luminescence, 48 h; reference of the scale not given here; inhibition, % (no concentration beside the values); hit rate 0.17% among 300,000;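 active = replicate mean above 50%; inconclusive = above 50% but judged a plate artefact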;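 note: 50 nL library stock added to about 25 µL; numbers are from one replicate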
# Bead autofluor = flagged as autofluorescent in microsphere protease counterscreen | compound autofluorescence counterscreen, microsphere flow cytometry; hits give high values | fluorescence intensity (test concentration not listed) | hit rate 3.1% among 360,000;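 active = at least 3 SD above the mean of all compounds, about 16000 in these data; inconclusive = too few beads counted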;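 note: 100 nL of 1 mM stock went into each well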
# Mtb hypoxia inh = reduces hypoxia-regulated biosensor signal in M. tuberculosis; hit rate 0.1% among 300,000; fluorescence inhibition, % (no concentration beside the values); M. tuberculosis hypoxia-regulated fluorescent reporter, fluorescence;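 active = 35 to 45% if threefold the growth effect, above 45% if 1.5-fold the growth effect; inactive = the rest, general growth blockers included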;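 note: wells of about 50 µL received 100 nL stock; 0% = vehicle wells and 100% = reference inhibitor wells; whole bacteria with a GFP reporter of the hypoxia response; strong numbers were not always called active; many hits fall short of the cut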
# Mtb hypoxia inh growth = also measured in Mtb hypoxia inh; calls as there; growth inhibition, %; measured here: M. tuberculosis growth (absorbance);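 0% = vehicle and 100% = reference antibiotic; read after six days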
# An asterisk follows results filed as active; ? = inconclusive; . = no result given.
SMILES,Sa RN4220 lethal,ugtP null kill,PrP 5UTR inh,BJeLR viability,Bead autofluor,Mtb hypoxia inh,Mtb hypoxia inh growth
COc1ccccc1S(=O)(=O)Cc1ccc(C(=O)NC2CCCCC2)o1,2.8,0,-4,-16,.,0,4
CC1=C(C(=O)NCc2ccccc2)C(c2cccs2)NC(=S)N1 (stereo not given),-0.4,8,-25,1,4397,4,3
CCC(=NNC(=O)c1ccc(CN(C)S(=O)(=O)c2ccc(C)cc2)cc1)c1ccc(OC(F)F)cc1,10,-4,.,.,.,4,4
Cc1cc2ccccc2c(=O)n1CC(=O)NCc1ccco1,2.3,4,-4,-7,3556,1,-2
COC(=O)c1cc(=O)n(Cc2ccco2)c(=Nc2ccc(F)cc2)s1,-13,0,-26,-8,6352,11,15
COc1ccc(/C=C(/NC(=O)c2ccccc2)C(=O)N2CCCCC2)cc1,-0.8,-3,0,6,4470,-1,-14
Cc1cccc(Cc2cccc(C)c2O)c1O,-1.5,-2,.,.,3937,14,-1
CCCC(C)NC(=O)CSc1nc2ccc(C)cc2[nH]1 (stereo not given),7.3,3,-20,1,4091,2,9
Cc1cc(=O)[nH]c(SCC(=O)N2C(C)CCCC2C)n1 (stereo not given),-0.1,2,-25,-3,5447,-2,14
Cc1ccc(S(=O)(=O)NC2(C(F)(F)F)C(=O)Nc3c2c(=O)n(C)c(=O)n3C)cc1 (stereo not given),-1.1,0,-18,-4,7134,16,3
CC1(CC(=O)N/N=C/c2ccc(-c3cccc(C(F)(F)F)c3)o2)OCCO1,.,.,-33,2,8533,.,.
COCCn1nnnc1C(c1ccccn1)N1CCN(c2cc(Cl)ccc2C)CC1 (stereo not given),-2.8,-1,-10,6,4863,.,.
CC(Oc1ccccc1)C(=O)N=C1SC2CS(=O)(=O)CC2N1c1cccc(F)c1 (stereo not given),4.1,3,-16,8,5006,-1,-1
CCCc1cc(=O)[nH]c2nnc(SCC(=O)Nc3ccc(C(C)=O)cc3)n12,1.1,0,5,-2,5678,-5,2
COc1ccccc1S(=O)(=O)N1CCN(S(=O)(=O)c2ccccc2C#N)CC1,-0.6,2,-2,-3,3616,-6,6
COc1ccc([N+](=O)[O-])cc1NC(=O)CCNC(=O)Cn1ccc2ccccc2c1=O,1.2,6,-12,0,3329,12,9
COc1ccc(C2=NN(CN3C(=O)C(=O)c4ccccc43)C(c3ccc(Br)cc3)C2)cc1 (stereo not given),-2.7,-12,-49,-2,10118,1,-5
COc1ccc(CC(=O)Nc2nnc(C(C)C)s2)cc1,0.7,1,-25,0,4238,13,8
CCCC(=NNc1ccc(Cl)cc1)c1cnnc(-c2ccccc2)n1,5.0,-1,.,.,.,6,10
CCOC(=O)c1cc(-c2ccccc2)nc2nc(N3CCCCC3)sc12,.,.,7,-21,2297,.,.
Cc1ccc2c(c1)N(C(=O)CCC(=O)NCCCN1CCOCC1)CC(C)O2 (stereo not given),0.3,1,-19,0,5190,-3,0
CCOC(=O)N1CCC(NC(=O)c2cc(-c3ccc(F)cc3)[nH]c2C)CC1,0.5,-1,-1,-8,3507,5,9
CC(OC(=O)c1cccc(-n2cnnn2)c1)C(=O)Nc1ccc(N(C)C)cc1 (stereo not given),0.9,0,-1,0,?,-2,1
Cc1ccc(C2CC(c3ccccc3)=NN2C(=S)Nc2ccccc2)o1 (stereo not given),3.6,-29,-20,20,2985,-7,-1
CN(C)c1cccc(C(=O)NCCCn2ccc3ccccc32)c1,-3.8,0,-26,-16,5879,-4,0

# Reprinted from the part before: seven compounds, then new ones.
SMILES,Sa RN4220 lethal,ugtP null kill,PrP 5UTR inh,BJeLR viability,Bead autofluor,Mtb hypoxia inh,Mtb hypoxia inh growth
CCCC(=NNc1ccc(Cl)cc1)c1cnnc(-c2ccccc2)n1,5.0,-1,.,.,.,6,10
CCOC(=O)c1cc(-c2ccccc2)nc2nc(N3CCCCC3)sc12,.,.,7,-21,2297,.,.
Cc1ccc2c(c1)N(C(=O)CCC(=O)NCCCN1CCOCC1)CC(C)O2 (stereo not given),0.3,1,-19,0,5190,-3,0
CCOC(=O)N1CCC(NC(=O)c2cc(-c3ccc(F)cc3)[nH]c2C)CC1,0.5,-1,-1,-8,3507,5,9
CC(OC(=O)c1cccc(-n2cnnn2)c1)C(=O)Nc1ccc(N(C)C)cc1 (stereo not given),0.9,0,-1,0,?,-2,1
Cc1ccc(C2CC(c3ccccc3)=NN2C(=S)Nc2ccccc2)o1 (stereo not given),3.6,-29,-20,20,2985,-7,-1
CN(C)c1cccc(C(=O)NCCCn2ccc3ccccc32)c1,-3.8,0,-26,-16,5879,-4,0
CCCCOc1ccccc1Cn1c(=O)oc2ccc(C)cc21,1.4,42,-4,-6,?,-1,3
COc1ccc(Cl)cc1NC(=O)CN(C)CC(=O)NCc1ccc(F)cc1,7.8,2,-8,.,4008,6,6
O=C(Nc1ccccc1)OCCN1CCOCC1,3.3,1,-40,.,4388,2,5
COc1ccc(CCn2nc(C)c([N+](=O)[O-])c2C)cc1,-1.3,4,-62,5,?,14,5
C=C1CCN(C(C(=O)O)C(C)C)S(=O)(=O)c2ccccc21 (stereo not given),5.5,-5,.,.,.,12,13
Cc1cc(=O)oc2cc(NS(=O)(=O)c3ccccc3)ccc12,5.3,5,0,5,3972,-2,-1
CS(=O)(=O)N(CC(=O)N1CCCCCC1)c1cc(Cl)ccc1Cl,5.5,6,-11,-9,3511,-1,3
Cc1ccsc1-c1n[nH]c(=S)n1C1CCCCC1,8.8,-3,-23,10,2544,12,6
CC1(C)CC(=O)C(CC2C(=O)CC(C)(C)CC2=O)C(=O)C1,3.9,15,-14,-2,6376,13,0
CN(C(=O)Cc1c(C(=O)O)n(C)c2ccccc12)c1ccc(Cl)cc1,14,14,-21,-8,3906,18,6
Cc1cccc(-n2cccc2)c1C#N,3.0,1,-56,1,10388,-1,2
CCc1nccn1CCC(=O)N1CCCC(Nc2ccc(F)cc2)C1 (stereo not given),1.2,11,-19,6,4734,5,2
CC(C)(C)Cc1nnc(NC(=O)CN2C(=O)c3ccccc3C2=O)s1,2.5,3,-64,1,4519,-5,4
CC1CN(C(=O)COC(=O)c2cc(Cl)ccc2[N+](=O)[O-])CC(C)O1 (stereo not given),3.8,17,3,8,3478,1,-6
Cc1ccccc1NC(=S)N(C)Cc1cccs1,-1.6,-7,-17,-8,2666,.,.
O=c1[nH]cnc2c1c(-c1ccccc1)cn2-c1ccc(Br)cc1,10,-8,-4,-5,2625,5,5
COc1ccc2c(c1)OC1=C(C(=O)CCC1)C2C1=C(O)CCCC1=O (stereo not given),8.8,5,-20,2,2791,14,17
N#Cc1cccc(NC(=O)COC(=O)c2cccc(N3C(=O)c4ccccc4C3=O)c2)c1,0.3,2,-6,1,2432,8,1
CN(CC(=O)Nc1cccc(F)c1)C(=O)c1cn(-c2ccccc2)nc1-c1ccc(Cl)cc1,-9.9,2,-2,.,4765,0,6
C=C(C)CSc1cc(C)c(C#N)c2nc3ccccc3n12,.,.,-19,-4,2196,.,.
COC(=O)C1CC(O)CN1S(=O)(=O)c1ccc2ccccc2c1 (stereo not given),4.6,11,-16,.,.,3,2
COc1ccccc1C(=O)Nc1ccccc1C(=O)N1CCCC1,1.1,-3,-17,-11,4153,.,.
CSc1ccc(S(=O)(=O)N(CC(=O)NCc2ccccn2)c2ccc(C)cc2)cc1,-6.6,-2,-6,3,3483,-11,-8
Cn1c(=O)c2c(nc(SCc3nc(N)nc(N4CCCCC4)n3)n2C)n(C)c1=O,2.5,2,-6,1,2458,10,-3
COc1cc(OC)cc(C(=O)Nc2ccccc2S(=O)(=O)N2CCCC2OC(C)=O)c1 (stereo not given),2.1,5,-17,2,3942,6,7
# Additional records.
SMILES,Sa RN4220 lethal,ugtP null kill,PrP 5UTR inh,BJeLR viability,Bead autofluor,Mtb hypoxia inh,Mtb hypoxia inh growth
N#Cc1ccccc1C=NNc1nc(-c2ccccc2)c2cc(Cl)ccc2n1,13,1,.,.,.,14,16
Cn1c(CC(=O)NNC(=O)c2ccc(Cl)nc2)nc2ccccc21,3.3,6,-19,.,3863,2,8
COC(=O)c1ccccc1NC(=O)C1CC(c2ccc(F)cc2)=NO1 (stereo not given),1.6,-7,-4,-1,16511*,4,-3
COc1ccc(CCNC(=O)c2cc(-c3ccc(C)c(C)c3O)n[nH]2)cc1OC,-2.1,12,-32,-14,3635,4,3
CC(NS(=O)(=O)c1ccc2c(c1)C(=O)c1cc(S(=O)(=O)NC(C)C(=O)O)ccc1-2)C(=O)O (stereo not given),3.3,4,-15,-1,3983,11,-2
COc1ccc(NC(=O)c2ccc3c(c2)S(=O)(=O)c2ccccc2C3=O)cc1,8.9,-13,-8,8,3723,6,14
COc1ccc(C(=O)NCCS(=O)(=O)N2CCOCC2)cc1,1.6,-1,-23,1,?,6,8
CCN(C[C@H]1N[C@@](Cc2ccccc2)(C(=O)OC)[C@H]2C(=O)N(Cc3ccccc3)C(=O)[C@@H]12)S(=O)(=O)c1ccc(C(F)(F)F)cc1,-0.3,1,86*,.,3648,3,10
Cc1ccc(SCCC(=O)N2CCN(S(=O)(=O)c3ccccc3)CC2)cc1,1.7,-4,-21,.,3211,-4,5
CSC1=NCCN1C(=O)c1c(-c2c(F)cccc2Cl)noc1C,9.0,-4,-4,-4,3748,9,-1
CN(C)Cc1c(O)ccc2ccccc12,3.3,10,-7,15,5052,9,18
O=S(=O)(c1ccccc1)N1CCN(C(=S)NC2CCCC2)CC1,5.2,12,-10,.,4430,1,-6
O=C1/C(=C\c2cccnc2)SC(=S)N1c1ccc(F)cc1,4.8,1,-9,-3,6000,12,9
CC1CCc2c(ccc3ccccc23)C1=O (stereo not given),8.2,14,-32,.,3033,12,8
CC(=O)Nc1ccc(NS(=O)(=O)c2ccc(CN3C(=O)c4cccnc4C3=O)cc2)cc1,-1.9,-5,-12,6,4268,0,6
CC(C)CN(C(=O)/C=C/c1nc2ccccc2s1)C1CCS(=O)(=O)C1 (stereo not given),3.1,2,-4,-5,6683,6,-1
O=C(CSc1nnc(CNc2ccc(F)cc2)n1Cc1ccco1)N1CCOCC1,1.8,3,-21,-6,3914,4,6
CCOCc1c(C(=O)N2CCN(Cc3ccc(Br)s3)CC2)oc2ccccc12,1.0,7,-13,.,3082,24,12
CCN(CC)c1ccc(S(=O)(=O)N2CCOCC2)cc1NC(=O)COC(=O)/C=C/c1ccc(C)o1,3.6,-3,2,-4,?,4,3
O=C(CO)NN=Cc1cccc(Cl)c1Cl,0.5,-10,.,.,.,4,-4
COc1ccc(N2CCN(Cc3oc(CO)cc(=O)c3O)CC2)cc1,3.7,10,-28,-20,3541,.,.
Cc1c(C)[n+](=O)c2c(n1[O-])C(Br)CCC2Br (stereo not given),-4.1,0,-5,-6,4462,2,13
CC(CN1C(C)CCCC1C)OC(=O)c1ccccc1Cl (stereo not given),3.5,7,-20,-2,3695,-4,-3
CCCCN1C(=O)/C(=C2/Sc3ccccc3N2C)S/C1=N\c1ncn[nH]1,.,.,-7,-1,4438,.,.
O=c1cc(O)n(Cc2ccc(F)cc2)c(=O)[nH]1,-1.0,1,-13,0,3292,-1,-1
# Carrying on.
SMILES,Sa RN4220 lethal,ugtP null kill,PrP 5UTR inh,BJeLR viability,Bead autofluor,Mtb hypoxia inh,Mtb hypoxia inh growth
CCOC(=O)NN=Cc1ccccc1OCc1ccc(Cl)cc1,11,0,.,.,.,-9,-4
C#Cc1ccc([C@@H]2C=C(C(=O)O)O[C@H](OCC)[C@H]2CCCO)cc1,.,.,-18,-1,2889,.,.
CC(Cc1ccccc1)/[N+]([O-])=C\c1ccc(C(F)(F)F)cc1 (stereo not given),.,.,-38,3,3990,.,.
Cc1onc(-c2ccccc2Cl)c1C(=O)OCN1C(=O)c2ccccc2C1=O,7.5,-2,-10,0,2931,13,11
COCCC(C(=O)Oc1c(C(C)(C)C)cc(C)cc1C(C)(C)C)c1ccccc1 (stereo not given),-5.4,9,-1,.,3930,11,7
CCCCCn1c(SCCN2CCOCC2)nc2c1c(=O)[nH]c(=O)n2C,2.2,3,-6,4,2441,.,.
CC(C)OC(=O)CCc1nc2ccccc2[nH]c1=O,4.1,9,-13,-4,6455,3,11
CCN(CC)CCn1c2c(c(SCC(=O)Nc3nc(C)cs3)nc1=O)CCC2,0.2,6,-22,-6,6288,5,3
CC(/C=N\NC(=O)c1ccc2c(c1)OCO2)c1ccccc1 (stereo not given),.,.,-41,-4,4216,.,.
